Compound activity deposited in PubChem by National Center for Advancing Translational Sciences (NCATS).
StopGo reporter = lowers the luciferase signal of an FMDV 2A StopGo reporter; human cells with a luciferase reporter of 2A StopGo recoding; control for the full effect not named in the record; Potency, µM (doses to about 57.9 µM), for the others: at the highest dose signal change, negative = less light; actives 1.2% (n = 410,000); AID 1159524; active = well fitted falling curve with a large enough effect; inconclusive = small, poorly fitted or top-dose-only effect; inactive = no such curve, though single readings can be large or run the other way; tested in HEK293T cells; further: on the % scale 0 is the no-effect control and ±100 the full control effect; nearly all actives have a fitted effect of over 45% in size; luciferase light after 4 h
RE007 growth inh = less growth of the S. pombe RE007 Vpr strain; S. pombe RE007 Vpr strain, BacTiter-Glo ATP luminescence, 24 h; control for the full effect not named in the record; Potency, µM (titrated, usually from 92.2 µM), for inactives: at the highest dose activity change, negative = less growth; actives 0.21% (n = 360,000); AID 651644; active = well fitted falling curve with a large enough effect; inconclusive = small, poorly fitted or top-dose-only effect; inactive = no such curve, though single readings can be large or run the other way;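 further: on the % scale 0 is the no-effect control and ±100 the full control effect; nearly all actives have a fitted effect of over 50% in size; the assay follows cell death caused by Vpr and the record does not say whether a fall means rescue or toxicity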
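Fission yeast RE007 carrying one integrated HIV-1 vpr copy, seeded at OD 0.01 in PMG+AL medium with 23 nL pinned compound. Grown 24 h at 30 degrees; viability read by BacTiter-Glo luminescence after 5 min.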
SARS PLP yeast = blocks SARS-CoV papain-like protease in a yeast assay; S. cerevisiae expressing SARS-CoV PLpro, growth rescue; control for the full effect not named in the record; Potency, µM (top dose mostly 32.9 µM), inactives show at the highest dose activity, positive = growth rescue; actives 0.19% (n = 330,000); AID 485353; active means well fitted rising curve with a large enough effect; inconclusive means small, poorly fitted or top-dose-only effect; inactive means no such curve, though single readings can be large or run the other way; further: 0% is about no effect; nearly all actives have a fitted effect of over 55% in size; growth read by luminescence after 48 h
Active calls of the source: *; ? = inconclusive; [ ] = remark or other dose. Potency means the concentration at half of the fitted maximal effect. A portion of the library; the hit share may differ from the screen's.

SMILES	StopGo reporter	RE007 growth inh	SARS PLP yeast
CCN1CCN(c2ccc(NC(=O)c3cc4ccccc4cc3OC)cc2C)CC1	0%	-4%	-2%
COc1ccc2sc(-c3ccc(SC)cc3)c(/C=C/c3ccc(OC)c(OC)c3)c2c1	5%	-6%	4%
CCNc1nc(NCC)nc(N/N=C(\C)c2ccc(OC)cc2)n1	0%	9%	-1%
c1ccc(C2(CN3CCNC[C@H]3Cc3cccc4ccccc34)CC2)cc1	-23%	-20%	3%
COc1ccc(/C=C/C(=O)N2CCCC2)cc1OC	5%	26%	-1%
COc1ccccc1NS(=O)(=O)c1cccc(C(=O)N/N=C(\C)c2cccnc2)c1	-4%	0%	1%
O=C1C=C(c2cc(Cl)cc(Cl)c2)C[C@@H](c2ccc3c(c2)OCO3)C1	-7%	4%	5%
CSc1ncccc1C(=O)OCC(=O)NCCc1ccccc1	-2%	20%	3%
CC(C)c1ccc(NC(=O)COC(=O)[C@@H]2CCCN2C(=O)c2cccs2)cc1	7%	1%	3%
COc1ccc(Cl)cc1NC(=O)C(C)OC(=O)C1=NNC(=O)CC1 (stereo not drawn)	-4%	1%	5%

Entries of single compounds as entered above.
CCN1CCN(c2ccc(NC(=O)c3cc4ccccc4cc3OC)cc2C)CC1 as listed: StopGo reporter: 0%; RE007 growth inh: -4%; SARS PLP yeast: -2%
COc1ccc2sc(-c3ccc(SC)cc3)c(/C=C/c3ccc(OC)c(OC)c3)c2c1 as listed: StopGo reporter: 5%; RE007 growth inh: -6%; SARS PLP yeast: 4%
COc1ccc(Cl)cc1NC(=O)C(C)OC(=O)C1=NNC(=O)CC1 (stereo not drawn) as listed: StopGo reporter: -4%; RE007 growth inh: 1%; SARS PLP yeast: 5%

More entries.
SMILES	StopGo reporter	RE007 growth inh	SARS PLP yeast
O=C(CN1C(=O)NC2(CCOc3ccccc32)C1=O)NCc1ccc(F)cc1 (stereo not drawn)	-16%	10%	-4%
CN1C2Cc3c(n(C)c4ccccc34)C1CC=C2CO (stereo not drawn)	-8%	0%	1%
CCC(C)(C)C1CCc2[nH]nc(C(=O)NCCNC(=O)OC(C)(C)C)c2C1 (stereo not drawn)	-1%	5%	-2%
CN(C)C1=NCCN1CCCCc1ccccc1	-5%	-5%	1%
CCCN(C(=O)COC(=O)c1nc2nc(C)cc(C)n2n1)C1CCS(=O)(=O)C1 (stereo not drawn)	-8%	3%	-1%
CC[C@]12c3[nH]c4ccc(OC)cc4c3CCN1C(=O)C(CC(=O)NCCc1ccccn1)C[C@@H]2C(=O)N1CCN(C(=O)C2CC2)CC1 (stereo partly drawn)	-12%	-9%	-3%
CCOC(=O)[C@H]1[C@H]2COc3cc(OC)ccc3[C@@H]2N2C(=O)c3cc(F)c(F)cc3NC(=O)[C@@]12C	-17%	1%	-4%
O=C(COC(=O)c1ccc2c(c1)OCCO2)NCCc1ccc(F)cc1	0%	-15%	-2%
CCC1(c2ccc(F)cc2)NC(=O)N(CC(=O)Nc2ccc3c(c2)OCCO3)C1=O (stereo not drawn)	-12%	12%	-7%
O=C(COC(=O)c1ccc(S(=O)(=O)N2CCOCC2)cc1)Nc1ccccc1F	-7%	28%	-4%
CCN(C[C@H]1N[C@@](CC)(C(=O)OC)[C@H]2C(=O)N(Cc3ccccc3)C(=O)[C@@H]12)S(=O)(=O)c1ccc(OC(F)(F)F)cc1	-27%	-14%	1%
CC[N+](CC)(CC)CCOc1ccc(/C=C/c2ccccc2)cc1	?	-15%	3%
CCN(CC(=O)NCc1cccs1)C(=O)/C=C/c1ccc(C)cc1	0%	4%	3%
COc1ccccc1NC(=O)COc1cc(Br)c(CNCCCN2CCOCC2)cc1OC	-6%	-9%	-1%
O=C(CN1C(=O)C2CC=CCC2C1=O)Nc1ccc(F)cc1F (stereo not drawn)	-16%	-1%	4%
Cc1ccc(NC(=S)NC2CCN(Cc3ccccc3)CC2)cc1C	0%	5%	1%
COc1cc([N+](=O)[O-])ccc1NC(=O)COC(=O)C1=NN(c2ccccc2)C(=O)CC1	69%[activator]	12%	-2%
COc1ccc([N+](=O)[O-])cc1NCC(=O)Nc1cc(S(=O)(=O)N2CCCCC2)ccc1C	-18%	3%	-2%
Cc1cc(C)c(C)c(S(=O)(=O)N2CCC(C(=O)NCc3ccco3)CC2)c1C	-28%	4%	-2%
COc1ccc(C(=O)OCc2c(-c3ccccc3)ncc3ccccc23)cc1	-17%	5%	-27%
COC(=O)c1ccc(CNC(=O)[C@@H]2CCCN2S(=O)(=O)c2ccccc2F)cc1	-16%	-2%	-1%
O=C(O)c1nccnc1C(=O)NCCc1c[nH]c2ccccc12	-18%	-8%	-2%
CCN(C(=O)COC(=O)c1cccnc1SC)c1c(N)n(Cc2ccccc2)c(=O)[nH]c1=O	-4%	-12%	-6%
CC(C)[C@H](NC(=O)c1ccccc1F)C(=O)NNC(=O)c1cccs1	-14%	3%	-1%
O=C(Nc1ccc(OC(F)(F)F)cc1)NC1CCC(Oc2ccc(C(=O)O)cc2)CC1 (stereo not drawn)	-2%	-4%	2%
COc1ccc(NC(=O)c2ccc(NC(=O)CSc3nc(N)cc(=O)[nH]3)cc2)cc1	-13%	4%	-3%
CCc1ccccc1OCC(=O)Nc1cc(S(=O)(=O)N(CC)CC)ccc1N1CCOCC1	?	-13%	-15%
COc1ccc(NC(=O)CSCC(=O)N(C)Cc2ccc(Cl)c(Cl)c2)cc1	-27%	9%	-19%
O=C(Nc1cccc(S(=O)(=O)NC2=NCCC2)c1)c1cc(=O)[nH]c2ccccc12	31%[activator]	-13%	-8%
O=C(Cn1cnc([N+](=O)[O-])c1)c1ccc(F)cc1	-13%	7%	-1%
CCN(C(=O)CSc1ccc(S(=O)(=O)N2CCOCC2)cn1)c1ccccc1	-15%	5%	-2%
COc1ccc(-c2nc(CC(=O)Nc3cccc(S(=O)(=O)NC4=NCCC4)c3)cs2)cc1	1%	-7%	0%
COc1cc(NC(=O)COC(=O)CNC(=O)C23CC4CC(CC(C4)C2)C3)cc(OC)c1	-15%	1%	1%
Cc1sc2ncnc(N3CCC(C(=O)Nc4sc5c(c4C(N)=O)CCC(C)C5)CC3)c2c1C (stereo not drawn)	?	-8%	-1%
Cc1nc(SCC(=O)NCC2CCCO2)c2cc(-c3ccccc3)sc2n1 (stereo not drawn)	5%	0%	4%
O=C(CN1CCOCC1)NNc1nc(-c2ccccc2)c2cc(Br)ccc2n1	?	-3%	4%
CC(C)C(NC(=O)C(NC(=O)C1O[C@@H]2OC(C)(C)O[C@@H]2[C@H]2OC(C)(C)O[C@@H]12)C(C)C)C(=O)O (stereo partly drawn)	-21%	25%	-1%
C#CCOCCOCCOCCNc1nc(N2CCN(C(=O)[C@H](CCCN=C(N)N)n3cc(C(N)[C@@H](C)CC)nn3)CC2)nc(N2CCN(C(=O)[C@H](CCC(=O)O)n3cc([C@@H](N)CCCCN)nn3)CC2)n1 (stereo partly drawn)	-6%	0%	2%
Cc1noc(C)c1COc1ccccc1C(=O)N1CCN(c2cccc(C(F)(F)F)c2)CC1	?	9%	-5%
CC(C)(C)OC(=O)NCCCCCNC(=O)c1[nH]cnc1C(=O)NC1CCN(C(=O)OC(C)(C)C)CC1	?	-5%	-2%
CC1=C(C(=O)c2ccccc2)C(c2ccc(N3CCOCC3)cc2)NC(=O)N1 (stereo not drawn)	-28%	-5%	1%
Cc1nnc(NC(=O)c2ccc3c(c2)NC(=O)CS3)s1	-1%	-2%	-1%
O=C(COC(=O)c1cccc(F)c1)NC(=O)NCc1ccccc1	-10%	-1%	-4%
COC(=O)C1=C(c2ccc(Cl)c(C(F)(F)F)c2)C[C@@H]2CC[C@H]1N2C(=O)N1CCC(O)(c2ccc(Cl)cc2)CC1	?	6%	-5%
CCCn1nc(C(=O)Nc2ccc(N3CCOCC3)cc2)c2ccccc2c1=O	-2%	2%	-2%
COc1cc(C(=O)OCC(=O)NC(=O)C2CCCCC2)ccc1OC(F)F	11%	6%	-2%
Fc1ccc2c(-c3cccc(C(F)(F)F)c3)c(-c3ccccc3)ncc2c1	-5%	7%	0%
Cc1ccc(-c2cc3onc(-c4ccccc4)c3c(=O)n2C)cc1	18µM*	19%	1%
CC(OC(=O)Cc1c[nH]c2ccccc12)C(=O)NC1CCCCC1C (stereo not drawn)	-16%	-6%	2%
CCCCC1CCC(C(=O)N(C)CC(=O)Nc2cccc(OC)c2)CC1 (stereo not drawn)	-15%	3%	1%

Further results.
SMILES	StopGo reporter	RE007 growth inh	SARS PLP yeast
O=C(CN1C(=O)NC2(CCc3ccccc32)C1=O)Nc1c(Cl)cccc1Cl (stereo not drawn)	-9%	5%	-2%
COc1ccc(NC2=C3CCCC=C3N(c3ccc(OC)cc3)C2=O)cc1	?	-10%	-4%
Cc1nn(C)c(C)c1NS(=O)(=O)c1ccc(Cl)s1	?	-4%	-2%
CSc1ccccc1NC(=O)CN(C)C(=O)C1CC(=O)N(C(C)c2ccccc2)C1 (stereo not drawn)	6%	-4%	-2%
Cc1noc(C)c1NC(=O)Nc1cccc2c1O[C@H](CN(C)C(=O)Nc1ccccc1)[C@@H](C)CN([C@H](C)CO)C2=O	48%[activator]	-6%	4%
COc1ccc(Cn2c(=O)c3cccnc3n(Cc3ccc([N+](=O)[O-])cc3)c2=O)cc1	-29%	5%	-1%
O=C1NC(=S)S/C1=C\c1coc2ccccc2c1=O	17%	-20%	-2%
C#CCOCCOCCOCCNc1nc(N2CCN(C(=O)CCCCCCCCCCNC(=O)Cn3cc(CCCCCN)nn3)CC2)nc(N2CCN(C(=O)CCCCCCCCCCNC(=O)Cn3cc(CCCCCN)nn3)CC2)n1	-7%	2%	?
CC(NC(=O)COc1ccccc1)C(=O)N1CCN(c2ccccc2)CC1 (stereo not drawn)	15%	-2%	0%
CCOc1ccc(C(=O)CCC(=O)NCC(=O)Nc2c(C)cccc2C)cc1	-15%	-12%	2%

Entries from the list above with a tert-butyl group:
SMILES	StopGo reporter	RE007 growth inh	SARS PLP yeast
CCC(C)(C)C1CCc2[nH]nc(C(=O)NCCNC(=O)OC(C)(C)C)c2C1 (stereo not drawn)	-1%	5%	-2%
CC(C)(C)OC(=O)NCCCCCNC(=O)c1[nH]cnc1C(=O)NC1CCN(C(=O)OC(C)(C)C)CC1	?	-5%	-2%

Going on with the list.
SMILES	StopGo reporter	RE007 growth inh	SARS PLP yeast
C[C@@H]1CC[C@@]23COC(=O)C2=CCC[C@@H]3[C@@]1(C)CC/C(=C/CO)CO	-29%	-5%	8%
Nc1nnc(SCC(=O)Nc2cccc(S(=O)(=O)N3CCCCC3)c2)s1	-26%	8%	1%
CC1CCCC(NC(=O)CSc2nnc(C(F)(F)F)n2C)C1C (stereo not drawn)	7%	2%	8%
COc1ccc2nc(-c3ccccc3)nc(C3CCCCC3)c2c1	-2%	-1%	2%
O=[N+]([O-])c1cc(S(=O)(=O)/N=C(/c2ccccc2)N2CCOCC2)ccc1Cl	0%	-12%	1%
O=C(NCc1cc(C(F)(F)F)ccc1Cl)c1cccc2c1C(=O)c1ccc(N3CCCCC3)cc1S2(=O)=O	-8%	9%	-2%
CCCCN(C)C(=S)Nc1ccsc1C(=O)OC	-12%	-3%	-4%
O=C1NC2(CCCCC2)C(=O)N1Cc1cc(=O)n2ccsc2n1	8%	15%	1%
O=C(OCCc1cc2ccccc2c(=O)o1)c1cccs1	44%[activator]	-1%	-9%
COc1cc(OC)cc(-c2c(-c3ccc(F)cc3)c3cc(-c4ccc5c(c4)OCCO5)ccc3n2C)c1	-28%	4%	2%
O=C(N1CCN(S(=O)(=O)c2ccc(Cl)cc2)CC1)n1ccnc1	-15%	-7%	0%
COc1ccc(-c2ccc3c(c2)O/C(=C\c2ccsc2)C3=O)cn1	23%	-10%	0%
C=CCN1c2ccccc2C(=O)CS1(=O)=O	-13%	-4%	-1%
O=C1C=C(c2cccc(Cl)c2O)C[C@@H](c2ccc3c(c2)OCO3)C1	0%	-4%	2%
CCc1cccc(C)c1NC(=O)CO/N=C(\N)CC(=O)NC1CCCCC1	-17%	-3%	0%
COC(=O)C1(Cc2cc(-c3ccc([N+](=O)[O-])cc3)no2)CCN(C(=O)OC(C)(C)C)CC1	0%	-1%	0%
Cc1nc(/N=C\c2ccc(N(C)C)cc2)sc1C	-6%	10%	5%
CCN(C[C@H]1N[C@@](C)(C(=O)OC)[C@H]2C(=O)N(Cc3ccccc3)C(=O)[C@@H]12)C(=O)c1ccccc1	-10%	13%	-4%
O=C(CCc1ccccc1)NNC(=O)c1ccncc1	-4%	7%	0%
Cc1ccc(S(=O)(=O)N2[C@@H](c3ccccc3F)C(C(=O)O)=CC[C@H]2c2cccs2)cc1	21%	2%	0%
Cc1cc(Cl)ccc1NC(=O)COC(=O)c1c(C)noc1C	6%	6%	-3%
CN1CCN(S(=O)(=O)c2cccc(C(=O)N3CCN(c4ccccc4)CC3)c2)CC1	-4%	-2%	-1%
